Autofluor counter: flagged as autofluorescent in microsphere protease counterscreen. compound autofluorescence counterscreen, microsphere flow cytometry; hits give high values. fluorescence intensity (no concentration beside the values). 360,000 tested, 3.1% active. AID 624483;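 active means at least 3 SD above the mean of all compounds, about 16000 in these data; inconclusive means too few beads counted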;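 further: 100 nL of 1 mM stock went into each well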
Mtb hypoxia rep: Mtb hypoxia fluorescent reporter inhibition. M. tuberculosis hypoxia-regulated fluorescent reporter, fluorescence. fluorescence inhibition, % (concentration not given with the values). 300,000 tested, 0.1% active. AID 1159583;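 active means 35 to 45% if threefold the growth effect, above 45% if 1.5-fold the growth effect; inactive means the rest, general growth blockers included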;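 further: wells of about 50 µL received 100 nL stock; 0% = vehicle wells and 100% = reference inhibitor wells; whole bacteria with a GFP reporter of the hypoxia response; strong numbers were not always called active; many hits fall short of the cut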
PrP UTR inh: inhibition of PrP 5' UTR reporter expression. AID 488862. cell-based PrP 5' UTR mRNA reporter, plate reader. inhibition, % (test concentration not listed). 340,000 tested, 0.35% active;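 active means every replicate at 50% or more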;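 further: 0 = median of the neutral control wells; tested in H4 reporter cells; numbers are from one replicate; inactives centre near -14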
ugtP null kill: compounds lethal to S. aureus RN4220 ugtP deletion mutant. OD600 growth, 16 h; some inactives read as strong as hits. growth inhibition, % (concentration not given with the values). 330,000 tested, 0.54% active;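 active means z-score under -3 and OD600 up to 0.15 on both plates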;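 further: plate controls were untreated wells for no effect and antibiotic for full effect; wells of about 80 µL received 100 nL stock; the first replicate is given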
BJeLR lethal: kills HRASV12-expressing BJeLR cells | 300,000 tested, 0.17% active | AID 1554 | inhibition, % (no concentration beside the values) | BJeLR (HRASV12) viability, CellTiter-Glo ATP luminescence, 48 h; reference of the scale not given here;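 active means replicate mean above 50%; inconclusive means above 50% but judged a plate artefact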;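 further: 50 nL library stock added to about 25 µL; numbers are from one replicate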
Sa RN4220 lethal: kills Staphylococcus aureus RN4220; S. aureus RN4220 growth, OD600, 16 h; inhibition, % (test concentration not listed); 330,000 tested, 0.33% active;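 active means z-score of -3 or lower and OD600 up to 0.18 on both plates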;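 further: plate controls were untreated cells for no effect and reference antibiotic for full effect; stock transfer was 100 nL into about 80 µL; one replicate is shown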
Mtb hypoxia rep growth: second read-out of Mtb hypoxia rep, no call of its own (marks repeat the call); growth inhibition, %; measured here: M. tuberculosis growth (absorbance);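 0% = vehicle and 100% = reference antibiotic; read after six days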
* = called active by the depositor; u = inconclusive; x = no result given.

SMILES,Autofluor counter,Mtb hypoxia rep,Mtb hypoxia rep growth,PrP UTR inh,ugtP null kill,BJeLR lethal,Sa RN4220 lethal
CC(C(=O)Nc1ccc(Cl)cc1Cl)N1C(=O)NC2(CCCCCCC2)C1=O (stereo not drawn),3928,8,9,-15,-6,x,0.7
Cc1ccc(-c2c[n+]3c(n2-c2ccccc2)SCC3)cc1,4884,x,x,-17,x,16,x
CC(C)(C)c1ccc(C(=O)N2CCN(C(=O)c3cccs3)CC2)cc1,4167,8,2,-21,-7,x,4.7
Cc1ccc(NC(=O)Cn2ccnc2)cc1C,3474,-11,-4,-13,3,-5,2.5
FC(F)(F)c1nnc2n1N=C(c1cccs1)CS2,4521,16,-1,-2,-1,-3,8.2
Cc1csc(SCC(=O)Nc2ccccn2)n1,4980,x,x,-7,6,-3,-2.1
O=C(COC(=O)c1ccc(O)cc1O)NC12CC3CC(CC(C3)C1)C2,3585,15,10,-11,-13,x,4.8
COc1ccc(NC2(C#N)CCCCC2)cc1,4019,9,-2,-25,-1,-2,-0.9
Cc1c(Br)c([N+](=O)[O-])nn1CC(=O)N(C)Cc1ccccc1,4650,1,2,-27,2,9,6.5
CNS(=O)(=O)c1ccc(NS(=O)(=O)c2ccccc2F)cc1,4383,11,10,-19,1,23,8.6
COc1ccc(C(=O)N(C)Cc2nc3ccccc3c(=O)[nH]2)cc1S(=O)(=O)N1CCCC1,2956,4,1,-21,14,x,6.6
CC(C)(C)c1cnnn1-c1ccc(C=O)cc1,24224*,3,1,-25,3,-4,1.3
CCOC(=O)CC1c2cc(F)ccc2S(=O)(=O)N1c1cccc(OC)c1 (stereo not drawn),x,-3,-2,x,-1,x,4.2
COc1cccc(CNS(=O)(=O)c2c(C(=O)N3CCCC3)c(C)n(C)c2C)c1,7301,16,-1,-14,3,19,1.1
Cc1ccccc1C(=O)O/N=C/c1c(N2CCOCC2)n(C)c2ccccc12,9062,x,x,-7,x,9,x
Cc1cccc(/C=N/NC(=O)Cn2nccc2C)n1,2453,x,x,-19,x,-5,x
COc1cccc2c(SCC(=O)NN=Cc3ccc(O)c(O)c3)cc(C)nc12,x,-8,-7,x,-4,x,7.4
NC(=O)CCC(NC(=O)c1ccc(F)cc1)C(=O)OCC(=O)NCc1ccc(F)cc1 (stereo not drawn),x,6,15,x,-3,x,1.6
COCCn1c(SCC(=O)N(C)c2c(N)n(Cc3ccccc3)c(=O)[nH]c2=O)nnc1-c1cccc(C)c1,6606,4,5,-21,-3,-4,3.4
O=C(NNC(=O)c1ccccc1Br)c1cnccn1,4083,9,36,-33,-1,x,2.0
CCC1CCCCN1C(=S)Nc1ccc(OC(F)F)cc1 (stereo not drawn),2590,3,6,-2,-2,-31,0.8
c1ccc(N2CCN(c3nnnn3-c3ccccc3)CC2)cc1,4339,1,-10,-9,-2,0,7.6
CCOC(=O)N1CCC(NC(=O)C2CCC(Cn3c(=O)[nH]c4ccccc4c3=O)CC2)CC1 (stereo not drawn),10461,11,5,-15,2,x,2.0
CCCC(=NCCc1c(C)[nH]c2ccccc12)C1=C(O)CC(c2ccccc2)CC1=O (stereo not drawn),10904,1,5,-33,-2,25,-0.1
COc1ccc(-n2nnc3c(=O)n(CC(=O)N4CCC(C)CC4)cnc32)cc1,6341,5,10,-21,-7,-4,-13
O=C(O)CC/C(=N\NC(=O)CNC(=O)c1cccc(Cl)c1)c1ccccc1,2459,x,x,-11,x,-6,x
Clc1ccc(-c2ccc(CNCc3ccccn3)o2)cc1,3847,2,-2,-33,-1,-13,2.8
CCN(CC)c1ccc(/C=C2/SC(=O)N(C(C)C)C2=O)o1,9181,17,18,-41,-15,-8,0.7
c1ccc(CN2CCN(C3=Nc4cccc5cccc3c45)CC2)cc1,3717,4,1,-37,0,3,0.0
COc1ccc(NC(=O)NC(C)(C(F)(F)F)C(F)(F)F)cc1,2877,x,x,-14,1,-3,1.0
COc1ccc(-n2c(C)cc(/C=N/Nc3nc(N4CCOCC4)nc(N4CCOCC4)n3)c2C)cc1,1952,x,x,-10,x,-3,x
CCOc1ccc(-n2cc(C(=O)N3CCC(C)CC3)c3cc(OC)c(OC)cc3c2=O)cc1,3630,3,14,-3,-3,10,3.1
CCCCn1c2nc3ccccc3nc2c2c(=O)n(CCC(C)C)cnc21,12986,4,9,-12,5,-7,3.3
CCN(CC)CCCNC(=O)c1ccc(Cl)c(S(=O)(=O)Nc2ccccc2OC)c1,u,11,6,-11,8,2,3.3
COC(=O)C1C(=O)C=C(Nc2ccc(F)cc2F)CC1c1ccc(OC)cc1 (stereo not drawn),10611,3,-1,-31,-1,-9,0.0
Nc1nnc(CC2=CCCCC2)s1,22203*,6,19,-32,4,-4,3.2
CCCNC(=O)C12CCC(C)(C(=O)O1)C2(C)C (stereo not drawn),3543,0,-2,x,5,5,1.6
CC1(C)CC2CC(C)(CN2CC(=O)C(C#N)c2ccccc2)C1 (stereo not drawn),8957,-6,2,15,-4,18,-4.9
O=C(COC(=O)C1CCN(S(=O)(=O)c2ccc3c(c2)OCCO3)CC1)NC1CCS(=O)(=O)C1 (stereo not drawn),9623,1,2,-28,3,-3,1.9
Cc1nc(N2CCOCC2)c2c(C)c(C(=O)Nc3ccccc3C(F)(F)F)sc2n1,4316,1,6,-16,10,-1,6.6
CCOC(=O)Cn1c(=NC(=O)c2cccs2)sc2cc(C(=O)OC)ccc21,2193,-15,3,-27,-3,3,-1.8
Brc1ccccc1C1=Nn2c(nnc2-c2ccco2)SC1,3574,-2,10,-17,-3,0,6.4
O=C1N[C@@H](Cc2ccccc2)C(=O)N1CCN1CCOCC1,22937*,15,11,-30,4,-3,2.8
O=C(COC(=O)/C=C/C(=O)OCC(=O)Nc1ccccc1F)Nc1ccccc1F,u,5,-2,-9,5,-13,3.4
COc1ccc(S(=O)(=O)Cc2ccc(C(=O)N3CCN(c4cc(Cl)ccc4C)CC3)o2)cc1,5616,x,x,-42,6,13,6.6
O=C(NCc1cccs1)c1ccccc1,10577,x,x,-25,-8,-7,5.3
CCOC(=O)n1c(=O)n(Cc2ccc(OC)cc2)c2ccccc21,3815,13,7,-29,4,11,5.7
CSc1ccc(CN(C)C(=O)c2cc3ccccc3o2)cc1,4267,14,1,-29,3,-3,1.0
Cc1ccc(OCCOCCN2CCN(C)CC2)c([N+](=O)[O-])c1,2012,-2,8,-24,7,-3,2.3
Cc1ccc(N2C(=O)CC(Sc3cccs3)C2=O)cc1 (stereo not drawn),3820,1,5,-22,35,0,12

By substructure: those above with a nitro group on carbon (two)
SMILES,Autofluor counter,Mtb hypoxia rep,Mtb hypoxia rep growth,PrP UTR inh,ugtP null kill,BJeLR lethal,Sa RN4220 lethal
Cc1c(Br)c([N+](=O)[O-])nn1CC(=O)N(C)Cc1ccccc1,4650,1,2,-27,2,9,6.5
Cc1ccc(OCCOCCN2CCN(C)CC2)c([N+](=O)[O-])c1,2012,-2,8,-24,7,-3,2.3

Next part:
Structure | Autofluor counter | Mtb hypoxia rep | Mtb hypoxia rep growth | PrP UTR inh | ugtP null kill | BJeLR lethal | Sa RN4220 lethal
CC1CCN(C(=O)Cn2cnc3c2c(=O)n(C)c(=O)n3C)c2ccccc2S1 (stereo not drawn) | 5484 | x | x | -19 | x | -2 | x
CCN(CC)S(=O)(=O)c1ccc(N2CC(C(=O)NCc3ccc4c(c3)OCO4)CC2=O)cc1 (stereo not drawn) | 5983 | -2 | 3 | -6 | 6 | x | -1.1
Fc1ccc(N2CCN(c3nnnn3-c3ccccc3)CC2)cc1 | 3396 | 4 | -5 | -15 | 1 | 1 | 1.8
O=C(NCc1ccccc1)c1ccc2c(c1)C(=O)N(CC1CCCO1)C2=O (stereo not drawn) | 16049 | 4 | 4 | -8 | 4 | -9 | 4.0
CCOc1ccc2nc(COC(=O)c3ccncc3)c(C(=O)c3ccccc3)[n+]([O-])c2c1 | 5804 | 9 | 3 | x | 5 | 5 | 3.8
CC(=O)Nc1cccc(-c2nc3ccccc3[nH]2)c1 | 4336 | 6 | 0 | -21 | 3 | 1 | 1.1
Cc1ccc(CNS(=O)(=O)c2ccc3c(c2)CCN3C(=O)CCCC(=O)O)cc1 | 3818 | 10 | 6 | -6 | 10 | 2 | 3.4
O=C(NC1CCCC1)c1sc(=S)n2c1[nH]c(=O)c1ccccc12 | 9563 | 0 | 1 | -8 | 59 | 7 | 66

5 compounds picked at random from the list so far, as already listed:
Structure | Autofluor counter | Mtb hypoxia rep | Mtb hypoxia rep growth | PrP UTR inh | ugtP null kill | BJeLR lethal | Sa RN4220 lethal
CCC1CCCCN1C(=S)Nc1ccc(OC(F)F)cc1 (stereo not drawn) | 2590 | 3 | 6 | -2 | -2 | -31 | 0.8
CC1(C)CC2CC(C)(CN2CC(=O)C(C#N)c2ccccc2)C1 (stereo not drawn) | 8957 | -6 | 2 | 15 | -4 | 18 | -4.9
Clc1ccc(-c2ccc(CNCc3ccccn3)o2)cc1 | 3847 | 2 | -2 | -33 | -1 | -13 | 2.8
Cc1ccc(CNS(=O)(=O)c2ccc3c(c2)CCN3C(=O)CCCC(=O)O)cc1 | 3818 | 10 | 6 | -6 | 10 | 2 | 3.4
c1ccc(CN2CCN(C3=Nc4cccc5cccc3c45)CC2)cc1 | 3717 | 4 | 1 | -37 | 0 | 3 | 0.0

(listing goes on)
Structure | Autofluor counter | Mtb hypoxia rep | Mtb hypoxia rep growth | PrP UTR inh | ugtP null kill | BJeLR lethal | Sa RN4220 lethal
O=C(NNC(=O)c1ccc2ccccc2c1O)c1cccs1 | 3765 | -11 | -12 | -39 | -8 | 2 | 0.4
NC(=O)c1cc([N+](=O)[O-])ccc1NCc1cnccn1 | 3067 | 6 | 8 | -12 | -1 | x | 3.0
CCOC(=O)c1cnc2c(C(=O)OC)cccc2c1NCc1ccco1 | 11416 | 7 | 4 | -18 | 1 | 0 | 6.5
C=CCNc1sc(C(=O)C2CC2)c(N)c1C#N | 2856 | x | x | -28 | 3 | x | 2.8
C=CCNc1nc(C(=O)OCC(=O)c2ccccc2)cs1 | u | 12 | 3 | 12 | 10 | -6 | 4.7
CC1(C)CC(=O)c2cc(OCC(=O)NCCCN3CCN(c4ccc(F)cc4)CC3)ccc2O1 | 9930 | 8 | 6 | x | 4 | 3 | 8.8
Cc1ccc(Nc2ncnc3ccccc23)cc1 | 1981 | -9 | -11 | -52 | -10 | -3 | 4.1
CCn1ncc(C(=O)Nc2cc(C)on2)c1C | 21849* | -5 | 3 | -25 | -1 | 0 | -1.1
NNC(=O)Cn1cnc2ccccc21 | 4651 | -2 | 3 | -17 | 2 | 0 | 4.0
Cc1nn(-c2ccc(N3CCOCC3)nn2)c(C)c1CCC(=O)N1CCN(C)CC1 | u | 75* | 37* | -23 | 3 | -9 | 2.9
CCCC1=C(C(=O)OCC)C(c2cc(Cl)cc(OC)c2OCC(=O)OCC)NC(=O)N1 (stereo not drawn) | 2485 | x | x | -23 | 4 | x | -2.3
CCCc1c(C(=O)NNc2cccc(Cl)c2)cnn1-c1ccccc1 | 5874 | 9 | 3 | -24 | 4 | -4 | 0.3
Nc1ccc(Nc2nc3ccccc3[nH]2)cc1 | 2243 | 9 | -3 | -26 | 3 | -4 | 5.7
CCN(CCn1cccn1)C(=O)C1CCC(=O)N(CCN2CCOCC2)C1 (stereo not drawn) | 5008 | 3 | -5 | -23 | 16 | 0 | 3.0
Cc1cc(C)n(-c2nc3c(c(=O)[nH]c(=O)n3C)n2CC(C)C)n1 | 2204 | x | x | -4 | 7 | 2 | 2.4
COc1ccccc1/C=C1/C(=O)ON=C1C | 4001 | 3 | -3 | -11 | 2 | 5 | 3.8
Cc1ccccc1OCCOC(=O)c1nc2nccc(C)n2n1 | 4362 | 14 | 7 | -10 | 0 | 2 | 1.0
Cc1ccccc1/C=c1\s/c(=C\C(=O)C(C)(C)C)[nH]c1=O | 2587 | x | x | -6 | x | -4 | x
O=C(O)c1cccc(-n2c(/C=C/c3ccc([N+](=O)[O-])cc3)nc3ccccc3c2=O)c1 | 3089 | -2 | 9 | -19 | 25 | -3 | 63
Cc1ccc(Nc2nc(N)nc(CN3CCCCCC3)n2)c(C)c1 | 3247 | x | x | -11 | -5 | -4 | 5.4
